Cruzain noTriton – blocks cruzain activity in detergent-free assay. actives 2.3% (n = 200,000). P25779. Potency, µM, inactives show max response, negative = inhibition, hits mostly inhibitors. purified cruzain, Z-FR-AMC fluorescence, no detergent;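 note: plate controls were enzyme without inhibitor for no effect and buffer without enzyme for full effect; nearly all actives have a fitted effect of over 40% in size; top concentration of the series not given in the record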
Target sequence (P25779 123-467 limits assumed): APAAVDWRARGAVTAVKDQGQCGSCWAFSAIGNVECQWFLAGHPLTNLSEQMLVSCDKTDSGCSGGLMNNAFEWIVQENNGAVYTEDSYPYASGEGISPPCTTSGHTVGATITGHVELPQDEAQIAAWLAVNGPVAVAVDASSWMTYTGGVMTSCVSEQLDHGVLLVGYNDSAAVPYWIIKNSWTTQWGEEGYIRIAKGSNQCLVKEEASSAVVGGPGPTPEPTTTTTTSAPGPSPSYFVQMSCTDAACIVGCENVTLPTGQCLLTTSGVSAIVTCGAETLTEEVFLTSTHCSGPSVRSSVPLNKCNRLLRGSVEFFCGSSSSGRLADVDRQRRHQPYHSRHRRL
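Detergent-free condition (0.00005% Triton X-100) in acetate buffer pH 5.5 with DTT. 1.5 nM enzyme and compound were pre-mixed 15 min, then 2 uM Z-FR-AMC substrate added; reaction progress from fluorescence change between first and third reads (60 s).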
Lassa entry inh – Lassa virus entry inhibition; Lassa virus pseudotype entry inhibition, cell reporter; control for the full effect not named in the record; Potency, µM (series often up to 37.9 µM), without a hit: at the top dose activity change, negative = inhibition, most hits filed as inhibitors; actives 1.2% (n = 300,000); active means well fitted inhibition curve with a large enough effect; inconclusive means small, poorly fitted or top-dose-only effect, or effect the other way; inactive means flat fitted curve, though single readings scatter; tested in HEK293 cells; note: % is set by controls: 0 for no effect and ±100 for the full control effect; nearly all actives have a fitted effect of over 50% in size; luciferase read-out
Marburg entry inh – blocks Marburg virus binding to or entry into cells; Marburg virus pseudotyped entry inhibition, cell reporter; control for the full effect not named in the record; about a third of the inactives were read at about 46 µM; AID 540276; Potency, µM (titrated, usually from 37.8 µM), for inactives: top-dose activity change, negative = inhibition, hits mostly inhibitors; actives 1.8% (n = 300,000); active = well fitted inhibition curve with a large enough effect; inconclusive = small, poorly fitted or top-dose-only effect, or effect the other way; inactive = flat fitted curve, though single readings scatter; tested in HEK293 cells; about a fifth of its hits are not listed in these tables; note: % is set by controls: 0 for no effect and ±100 for the full control effect; luciferase read-out
StopGo reporter – FMDV 2A StopGo reporter, luciferase signal; human cells with a luciferase reporter of 2A StopGo recoding; control for the full effect not named in the record; Potency, µM (titrated, usually from 57.9 µM), for the others: at the top dose signal change, negative = less light; actives 1.2% (n = 410,000); AID 1159524; active = well fitted falling curve with a large enough effect; inconclusive = small, poorly fitted or top-dose-only effect; inactive = no such curve, though single readings can be large or run the other way; tested in HEK293T cells; note: % is set by controls: 0 for no effect and ±100 for the full control effect; nearly all actives have a fitted effect of over 45% in size; luciferase light after 4 h
SARS PLP yeast – SARS-CoV PLP inhibition in yeast; S. cerevisiae expressing SARS-CoV PLpro, growth rescue; control for the full effect not named in the record; Potency, µM (titrated, usually from 32.9 µM), for the others: top-dose activity, positive = growth rescue; actives 0.19% (n = 330,000); active means well fitted rising curve with a large enough effect; inconclusive means small, poorly fitted or top-dose-only effect; inactive means no such curve, though single readings can be large or run the other way; note: 0% is about no effect; nearly all actives have a fitted effect of over 55% in size; growth read by luminescence after 48 h
RE007 growth inh – less growth of the S. pombe RE007 Vpr strain; S. pombe RE007 Vpr strain, BacTiter-Glo ATP luminescence, 24 h; control for the full effect not named in the record; Potency, µM (series often up to 92.2 µM), for inactives: top-dose activity change, negative = less growth; actives 0.21% (n = 360,000); active = well fitted falling curve with a large enough effect; inconclusive = small, poorly fitted or top-dose-only effect; inactive = no such curve, though single readings can be large or run the other way;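 note: % is set by controls: 0 for no effect and ±100 for the full control effect; nearly all actives have a fitted effect of over 50% in size; the assay follows cell death caused by Vpr and the record does not say whether a fall means rescue or toxicity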
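Fission yeast strain RE007, carrying one chromosomally integrated HIV-1 vpr copy, was seeded at OD 0.01 in PMG+AL medium with 23 nL pinned compound. After 24 h at 30 °C and 99% humidity, viability was read by BacTiter-Glo luminescence.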
Cruzain Triton – blocks cruzain activity in presence of Triton detergent; P25779; purified cruzain, Z-FR-AMC fluorescence, 0.01% Triton; Potency, µM, inactives show max response, negative = inhibition, hits mostly inhibitors; actives 0.43% (n = 200,000);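 note: plate controls were neutral wells for no effect and buffer without enzyme for full effect; nearly all actives have a fitted effect of over 40% in size; top concentration of the series not given in the record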
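15 min RT preincubation of 1.5 nM cruzain with compound, then 2 uM Z-FR-AMC added; kinetic AMC fluorescence, 60 s delta. Triton X-100 0.01%, pH 5.5.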
NS1 function inh – inhibitors of influenza NS1 protein function; S. cerevisiae slowed by influenza A NS1, growth recovery by OD600; Potency, µM (highest dose often 46.1 µM), for inactives: at the highest dose activity, positive = more growth; actives 0.4% (n = 270,000); active means well fitted rising curve with a large enough effect; inconclusive means small, poorly fitted or top-dose-only effect; inactive means no such curve, though single readings can be large or run the other way; note: nearly all actives have a fitted effect of over 50% in size
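In this qHTS, NS1 from influenza A is expressed in budding yeast, where it slows growth. Cells are switched from glucose to 2% galactose medium (pH 6.0, -URA), treated with compound, and growth recovery is read at OD600.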
Active calls of the source: *; u = inconclusive; x = not tested or not shown; & = joins results of further samples; [ ] = another dose, or the depositor's remark. Unless noted, calls come from the whole dose curve; as a rule, active = well fitted curve in the direction sought with a large enough effect; inconclusive = small, poorly fitted or top-dose-only effect, or another doubt; inactive = no such curve, though single readings can be large; an effect the other way counts as inactive or inconclusive. Potency is the fitted concentration of half-maximal effect.

canonical_smiles | Cruzain noTriton | Lassa entry inh | Marburg entry inh | StopGo reporter | SARS PLP yeast | RE007 growth inh | Cruzain Triton | NS1 function inh
O=C(O)c1ccc(S(=O)(=O)N2CCCCCC2)cc1 | 2% | 6% | 0% | -6% | -17% | -5% | 6.1% | 12%
CCN(CC)S(=O)(=O)c1ccc(N2CCOCC2)c(NC(=O)CC2OC(=O)c3ccccc32)c1 (centres undefined) | x | -8% | 5% | -3% | -2% | -4% | x | x
CCOC(=O)C1CCCN(C(=O)CSc2ccccc2)C1 (centres undefined) | 5% | 9% | 26% | 26% | -10% | 31% | 2.0% | 0%
O=S(=O)(c1cnccc1N1CCN(CCO)CC1)N1CCCC1 | 5% | x | x | u | x | 13% | 1.9% | 9%
O=C(N/N=C/c1cc2c(cc1Br)OCO2)c1cc2ccccc2o1 | x | x | x | 51%[activator] | 2% | -3% | x | -10%
CCOCCCn1c(SCC(=O)Nc2ccccc2OC)nc2c(oc3ccccc32)c1=O | u | x | -6%[46.1 µM] | u | x | x | -4.4% | x
CNC(=O)N(O)C1N(/N=C/c2c(F)cccc2Cl)C(=S)SC1(C)C (centres undefined) | x | x | x | 14% | 0% | 4% | x | -8%
CN(C(=O)c1cccc(Nc2ccc(-c3ccc4c(c3)OCCO4)nn2)c1)C1CCCCC1 | -14% | 14µM* | u | -54% | -2% | -4% | -1.8% | u
CC(=NCC1CCCO1)c1c(O)[nH]c(=O)[nH]c1=O (centres undefined) | 5% | 0% | 31% | 17% | 1% | 7% | 0.9% | 7%
CSc1nc2n(n1)C(c1cccs1)C1=C(CCCC1=O)N2 (centres undefined) | x | 2% | -14%[46.1 µM] | -10% | -1% | 13% | x | -3%
O=C(Nc1ccc(F)cc1)C(Sc1nc2ccccc2[nH]1)c1ccccc1 (centres undefined) | -16% | -29% | u | -16% | 6% | -2% | -5.1% | 0%
CCCCc1ccc(NS(=O)(=O)c2cccc(C(=O)N3CCNC(=O)C3)c2)cc1 | x | 1% | 17% | -12% | 3% | -17% | x | x
O=C(Cc1ccccc1)N(Cc1cccnc1)c1nc2c(Cl)cccc2s1 | -21% | u | x | -1% | x | x | -2.4% | x
O=C(NCc1ccco1)C(c1ccncc1)N(C(=O)Cn1nnc2ccccc21)c1ccccc1 (centres undefined) | x | -2% | -15%[46.1 µM] | 59%[activator] | -2% | -3% | x | -8%
CCCc1nnc(NC(=O)c2c(O)c3cccc4c3n(c2=O)CCC4)s1 | u | x | x | x | -5% | x | -1.9% | -3%
O=C(CSc1ncnc2ccccc12)N1CCCC1 | -3% | x | x | 32%[activator] | -1% | 8% | -0.2% | -4%
Cc1oc(=O)c(NC(=O)c2cccc(Cl)c2)cc1C(=O)c1ccccc1 | 0.63µM* | -17% | u | -21% | -29% | 14µM* | 1.3µM* | -170%
Cc1cc(C)cc(NC(=O)c2cc(C)nc3c2c(C)nn3-c2ccccc2)c1 | 12% | u | x | -2% | x | x | -0.5% | x
Cc1cc(OCC(=O)NC(Cc2ccc(Cl)cc2)C(=O)O)c2c(C)c(C)c(=O)oc2c1 (centres undefined) | x | x | x | -8% | 11% | -6% | x | 7.9µM*
COc1cccc(-n2ccn(CC(=O)Nc3ccccc3F)c(=O)c2=O)c1 | 3% | -9%[46.1 µM] | x | u | x | x | -3.8% | x
O=C(c1ccc2c(c1)N(Cc1ccccc1F)C(=O)c1ccccc1S2(=O)=O)N1CCN(c2ccccc2F)CC1 | -6% | -27%[46.1 µM] | u | -8% | x | x | -2.8% | x
CCCCCc1c(C)nc(NCc2ccccc2)[nH]c1=O | -8% | -40%[14.3 µM] | -5% | 16% | -3% | 11% | -3.7% | -62%
COC(=O)CNC(=O)Nc1cc(C(=O)NCc2ccc(C)cc2)ccc1N1CCCC1 | -11% | -1%[46.1 µM] | x | 4% | x | x | -4.2% | x
Cc1ccc(NC(=O)CSc2nnc(-c3cnccn3)n2Cc2ccco2)cc1C | 21% | 8% | 13%&13% | -9% | 1% | -11% | 1.9% | -8%
CN(C)c1ncnc2c1C(c1ccccc1)C(C)(C)O2 (centres undefined) | x | 21%[46.1 µM] | 5% | -24% | x | -20% | x | x
Cc1ccc(S(=O)(=O)Nc2nc(C)c(NC(=O)Nc3ccc(Cl)cc3Cl)s2)cc1 | 10% | 3% | 19% | 82%[activator] | -4% | 5% | -24% | 15%
COc1ccc(NC(=O)c2ccc3c(c2)C(=O)N(CC2CCCO2)C3=O)cc1 (centres undefined) | x | -15%[46.1 µM] | 7%[46.1 µM] | -15% | -2% | -8% | x | 3%
O=C(COC(=O)c1cccnc1Cl)Nc1ccc2c(c1)OCCO2 | x | 21%[46.1 µM] | 7%[46.1 µM] | 29% | -1% | 6% | x | 2%
COc1ccc(-c2c(C#Cc3ccsc3)c3ccccc3n2C)cc1 | x | x | x | 9% | -14% | 12% | x | u
CN(C)C(=O)CCN1CCOCC1 | -2% | -1% | 19% | 7% | 2% | 3% | 5.0% | -2%
Cc1ccc(Cl)c(OCC(=O)OCC(=O)c2ccc[nH]2)c1 | x | 18% | 1% | -2% | -4% | 11% | x | x
COc1ccccc1NC(=O)CSc1ccc2nnc(-c3ccccn3)n2n1 | -16% | x | x | -6% | 1% | -11% | -7.0% | -4%
O=C(CSc1ncnc2c1nnn2-c1ccc(F)cc1)NCC1CCCO1 (centres undefined) | 8% | -18% | -29% | 16µM* | 2% | -4% | 3.2% | -2%
CCCCc1c(C)nc2ccc(Br)cc2c1SC(N)N | x | x | x | 10% | 0% | 5% | x | 5%
COCCN1CC(CNC(=O)c2cc(COc3ccc(C)c(C)c3)on2)CC1=O (centres undefined) | x | x | x | -10% | 12% | 17% | x | -9%
COc1ccc(NS(=O)(=O)c2cnc[nH]2)cc1 | x | -2% | 2%[46.1 µM] | 3% | 1% | -18% | x | x
Cc1ccc(S(=O)(=O)N2CCN(C(=O)c3cc(-c4cccs4)nn3-c3ccccc3)CC2)cc1 | x | 5% | -21% | u | 6% | -19% | x | x
O=C(CCNc1ccc(F)cc1)c1cccc([N+](=O)[O-])c1 | -3% | -12% | 11% | 15% | -27% | 18µM* | -10% | -32%
COc1cc(-c2nc3sc(C)c(C)c3c(=O)o2)cc(OC)c1OC | x | x | x | 5% | 0% | -5% | x | 9%
COc1ccccc1CNC(=O)CSc1nc(N)c(C#N)c(-c2cccs2)c1C#N | -4% | 13% | -19% | u | -5% | 4% | -7.6% | 4%
CCOCC(=O)Nc1nc2ccc(S(C)(=O)=O)cc2s1 | -13% | 1% | 4%[46.1 µM] | -8% | 2% | -13% | 3.3% | 13%
CCCc1cc(N2CCCC(C(=O)NCc3ccc4c(c3)OCO4)C2)n2ncnc2n1 (centres undefined) | -7% | -10% | -15% | -4% | 7% | 11% | 1.6% | -7%
Cc1ccc(-n2ncc3c(N4CCN(Cc5ccccc5)CC4)ncnc32)cc1Cl | -9% | 5%[46.1 µM] | x | 13µM* | x | x | 0.3% | x
COC(=O)CNC(=O)c1cc(OC)cc(OC)c1 | x | -5% | 25% | 3% | -1% | 2% | x | -3%
O=[N+]([O-])c1cccc(/C=N/Nc2cc(N3CCOCC3)ncn2)c1 | x | x | x | 8% | 0% | -2% | x | 8%
CCc1cc(C(c2ccncc2)N2CCN(C)CC2)c(NC(=O)c2ccccc2)s1 (centres undefined) | -21% | 19% | u | -4% | -26% | -29% | -11% | -4%
COc1ccc(-c2nc(CSCC(=O)N3CCN(c4cc(Cl)ccc4C)CC3)c(C)o2)cc1 | u | -18%[46.1 µM] | u | u | x | x | -3.3% | x
CCN(CC)S(=O)(=O)c1ccc(F)c(C(=O)NCCC(C)C)c1 | 6% | -3% | 20% | 6% | 5% | 14% | 2.0% | -2%
CC(=O)N1CCc2cc(S(=O)(=O)Nc3ccc(C)cc3C)ccc21 | x | x | x | -14% | 2% | 12% | x | -1%
COC(=O)c1ccc(CSc2n[nH]c(-c3ccccc3)n2)o1 | x | x | x | 8% | 1% | -19% | x | -4%
Oc1ccc(CNc2ccccc2F)c2cccnc12 | -27% | u | u | -21%&-20% | u | -12% | -4.4% | -7%
O=C(c1ccco1)N1CCN(CCCCOc2ccc(F)cc2)CC1 | 1% | 2% | u | u | -8% | 6% | -1.6% | -2%
COc1ccc(NC(=O)CN(C)C(=O)CSCc2c(C)noc2C)cc1 | x | 7% | u | -6% | -5% | 6% | x | x
Cc1ccc(C)c(C(=O)OCC(=O)Nc2ccc(N3CCOCC3)cc2)c1 | x | u | u | -11% | -2% | 4% | x | -5%
CCC1(c2cccc(Cl)c2)NC(=O)N(Cc2cc(C(=O)OC)c(C)o2)C1=O (centres undefined) | 22% | -8% | -4% | 28µM* | -13% | 5% | -3.9% | -20%
CCC(Sc1nc(C)cc(=O)[nH]1)C(=O)Nc1nnc(C)s1 (centres undefined) | -12% | 23% | 18% | -15% | 4% | 4% | 1.8% | 5%
COc1cc2[nH]c3c(=O)n(CCN(C(C)C)C(C)C)cnc3c2cc1OC | -6% | 22% | 0%&-25% | 1% | 4% | -13% | -4.0% | 4%
COc1cc(C(=O)NC(=S)N(C)Cc2ccccc2)cc(OC)c1OC | x | -25% | 9%[46.1 µM] | -22% | 0% | 6% | x | 8%
O=C(NCc1ccc2c(c1)OCO2)c1ccncc1 | 5% | u | 29% | 3% | 16µM* | -5% | -0.6% | -3%
COc1ccccc1-c1nc(SCC(=O)c2ccccc2)n[nH]1 | 0% | 0%[46.1 µM] | 4%[46.1 µM] | 46%[activator] | x | x | -4.3% | x
O=C(Nc1nc(-c2ccccn2)cs1)c1ccco1 | x | u | u | 12% | 1% | u | x | x
CC(=O)c1cccc(NC(=O)C2CCN(S(=O)(=O)c3ccc(F)cc3)CC2)c1 | -11% | u | -23% | u | 1% | -4% | 1.7% | -15%

Source: PubChem BioAssay (National Center for Advancing Translational Sciences (NCATS))
